CSC inhib: blocks cancer stem cells; inhibition, % at 7.5 µM; cancer stem cell-like cells viability, luminescence; AID 2717; 300,000 compounds, 1.1% hits;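 active = mean at 75% or more and at least half the replicates too; tested in HMLE shEcad cells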;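 also: 0% = median of negative and 100% = median of positive control wells; the first replicate is given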
eIF4H FP inh: inhibitors of RNA binding by human eIF4H; 290,000 compounds, 0.94% hits; inhibition, % at 35 µM; eIF4H fluorescence polarization binding assay; Q15056;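 active = 50% or more with normal probe brightness, or confirmed in later tests; about a fifth of its hits are not listed in these tables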;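 also: calls also rest on retests at 20 µM and on dose response follow-up; 0% = protein and probe with vehicle and 100% = probe without protein; strong numbers were not always called active; many hits fall short of the cut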
PABP polyA inh: blocks human PABP binding to poly(A) RNA; P11940; fluorescence polarization; inhibition, % at 35 µM; 290,000 compounds, 1% hits; AID 2014;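 active = 50% or more with normal probe brightness, or confirmed in later tests; about a fifth of its hits are not listed in these tables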;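 also: calls also rest on retests at 20 µM and on dose response follow-up; controls were probe without protein and protein plus probe with vehicle; some compounds called inactive have numbers as strong as hits; many hits fall short of the cut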
MT1-MMP act inh: blocks activation of human MT1-MMP. P50281. HT1080 RFP-PRO-GFP cells, GFP/RFP ratio fluorescence, overnight; percent of plate control window, DMSO zero. GFP/RFP ratio change, % at 20 µM. 360,000 compounds, 0.061% hits. AID 651647;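 active = GFP/RFP ratio change of at least 30% with cell ATP level not reduced by more than half and red fluorescence within 50% of control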; also: strong numbers were not always called active
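Compound: 20 µM single dose, 1% DMSO / System: HT1080 RFP-PRO-GFP cells / Controls: DMSO and RFP-L50D-GFP cell wells / Read-out basis: GFP/RFP fluorescence ratio / Schedule: overnight compound exposure at 37 °C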
Rce1 inhib: yeast Ras-converting enzyme inhibition. 290,000 compounds, 0.27% hits. calls only. yeast membranes, quenched prenylated peptide cleavage fluorescence;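 active = fall in fluorescence gain of 50% or more versus controls, with final raw signal at or below 3038400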;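 also: plate controls were neutral control wells for no effect and wells lacking membranes for full effect; tested at 10 µM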
Target sequence (Q03530 whole entry, looked up): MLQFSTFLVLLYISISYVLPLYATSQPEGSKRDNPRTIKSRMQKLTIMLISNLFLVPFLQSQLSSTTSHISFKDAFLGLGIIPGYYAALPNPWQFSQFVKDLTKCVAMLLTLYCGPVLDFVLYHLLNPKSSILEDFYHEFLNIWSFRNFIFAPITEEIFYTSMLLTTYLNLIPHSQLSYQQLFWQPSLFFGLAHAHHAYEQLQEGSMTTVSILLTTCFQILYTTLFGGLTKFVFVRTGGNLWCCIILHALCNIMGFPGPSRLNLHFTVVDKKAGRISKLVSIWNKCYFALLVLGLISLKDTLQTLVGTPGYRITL
HIV Env fusion: blocks HIV Env-driven cell-cell fusion | HeLa-JRFL Env/CEM21 cell fusion, luciferase | inhibition, % at 12.3 µM | 360,000 compounds, 1.1% hits;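 active = mean replicate inhibition score of at least 50 and every replicate individually at or above 50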;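 also: 0% = plate neutral controls and 100% = maraviroc near 300 nM; one replicate is shown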
UUG fidelity: modulators of start codon recognition fidelity in yeast; S. cerevisiae UUG-firefly luciferase reporter, luminescence/redox ratio; activity score, % at 18.7 µM; 350,000 compounds, 0.13% hits; AID 602363;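 active = replicate mean at a twofold rise or more, about +100% in these data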;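 also: firefly luciferase made from a UUG start codon reports start codon fidelity; reporter light over untreated wells divided by growth signal over untreated wells; some hits fall short of that in this replicate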
eIF4H FP inh retest: recorded beside eIF4H FP inh, whose call it bears; inhibition, %; compound at 20 µM; confirmation average;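 mean of two retest wells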
PABP polyA inh retest: further read-out of PABP polyA inh, marked with its call; inhibition, %; compound at 20 µM; confirmation repeats;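 mean of two retest wells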
MT1-MMP act inh RFP: second read-out of MT1-MMP act inh, no call of its own (marks repeat the call); RFP signal change, %; measured here: RFP expression control read;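 0 = vehicle wells; hits needed this value within 50% of zero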
Numbers without * were called inactive; i = inactive; nt = not tested or not shown. An excerpt (hit frequency here may not be typical).

SMILES	CSC inhib	eIF4H FP inh	PABP polyA inh	MT1-MMP act inh	MT1-MMP act inh RFP	Rce1 inhib	HIV Env fusion	UUG fidelity	others
O=c1[nH]c(Cc2ccc(F)cc2)nc2scc(-c3ccc(F)cc3)c12	21	-5	-2	-5	-16	i	12	0
Cc1cccc(-c2nnc3n2N=C(c2ccccc2Br)CS3)c1	7	-11	-13	-9	-13	i	nt	-4
CCOC(=O)c1[nH]c2ccc(OC)cc2c1NC(=S)N1CCN(c2ccccc2)CC1	3	-5	-7	2	-1	i	-36	nt
Cc1ccccc1Cc1c(C)nc2c(C(=O)N3CCN(Cc4ccc5c(c4)OCO5)CC3)cnn2c1C	nt	nt	nt	8	-2	i	60*	-11
CC1CCCCC12NC(=O)N(CC(=O)c1ccc[nH]1)C2=O (centres undefined)	3	29	23	-7	1	i	nt	-13
O=C(O)c1ccc(OCc2cn3ccccc3n2)cc1	-3	2	12	3	-3	i	1	nt
COc1ccc(-c2cc(NC(C)=O)c3ncc(-c4cccc(C(F)(F)F)c4)n3c2)c(OC)c1	nt	nt	nt	4	0	nt	-18	-9
COc1cc(/C=C/C(=O)O)cc(S(=O)(=O)Nc2cccc(SC)c2)c1OC	-6	-4	-3	-8	-4	i	-3	0
CN(CC(=O)Nc1ccc(Cl)cc1)C(=O)c1ccc(-n2cncn2)c([N+](=O)[O-])c1	1	nt	nt	-5	0	i	nt	nt
COc1cc(C(=O)N2CCN(C(=O)COc3ccc4ccccc4c3)CC2)cc(OC)c1OC	-14	-12	-4	6	-1	i	nt	-2
CCCC(NS(=O)(=O)c1ccc(C)cc1)C(=O)O (centres undefined)	0	-2	6	2	4	i	-23	-8
CCC1SC2=NCCN2C1(O)c1ccc(Cl)cc1 (centres undefined)	nt	-6	2	-14	-2	i	-19	-14
CNc1nc(OCC#N)nc(N2CCCCC2)n1	-8	-1	14	2	0	i	1	nt
Cc1cc(C)n(Cc2ccc(C(=O)NN)o2)n1	-3	-1	1	1	1	i	-7	nt
COC(=O)CN1C(=O)C(O)(CC(=O)c2ccc(Cl)cc2)c2ccccc21 (centres undefined)	-5	-2	1	-1	7	nt	21	-4
Cc1cccc(CC(=O)NCCS(=O)(=O)N2CCN(c3ccccc3)CC2)c1	nt	nt	nt	1	-2	nt	-37	-10
COc1ccc(NC(=O)C2(C)Cc3c(-c4ccc(NC(C)=O)cc4)ccnc3O2)cc1 (centres undefined)	nt	nt	nt	2	1	nt	-72	-1
CCOc1ccc(-c2nnn(CC(=O)NCc3ccc4c(c3)OCO4)n2)cc1	-2	1	-10	-3	-6	i	nt	-23
c1ccc(Cc2nc(-c3ccccn3)no2)cc1	-6	-1	-12	5	2	i	-33	-16
Cc1cc(S(=O)(=O)NCC(C)C)ccc1OCC(=O)NCc1ccco1	-6	3	8	4	5	i	-20	-10
OCCN1CCN(c2cc(-c3ccc(CO)cc3)nc3ccnn23)CC1	nt	nt	nt	11	8	nt	-15	-8
C[C@]1(C(=O)NCCN2CCOCC2)C=C[C@@H](Cc2ccccc2)N1C(=O)c1ccccc1	-1	-8	79	0	5	i	-4	-2	eIF4H FP inh retest=-4;PABP polyA inh retest=-1
O=C(O)c1ccc(NC(=O)C2C3CCC(C3)C2C(=O)O)cc1 (centres undefined)	-2	-8	-2	-2	5	i	nt	14
COC(=O)c1cc(C(=O)Nc2nnc(CC(C)C)s2)cc([N+](=O)[O-])c1	nt	2	-5	3	0	i	nt	nt
COc1cccc(NCc2cc(=O)oc3cc(C)c(C(C)C)cc23)c1	-2	-13	12	3	2	i	-16	-12
COc1ccc(C(=O)NC(NC(=O)c2ccc(OC)c(OC)c2)c2ccccc2F)cc1OC	-6	-3	7	2	4	nt	4	nt
O=C(Nc1cccc(C(F)(F)F)c1)C(SCCO)c1ccccc1 (centres undefined)	-8	-11	-9	-1	0	i	-18	-4
Cc1ccc(S(=O)(=O)Nc2ccc(Nc3nccn4c(-c5ccc6ccccc6c5)cnc34)cc2)cc1	nt	nt	nt	-3	-9	nt	-164	-16
COc1cc2c(cc1OC)C1C/C(=N\O)C(CC(C)C)CN1CC2 (centres undefined)	2	-4	3	-1	4	i	nt	-9
CCOc1ccccc1Oc1nc(-c2ccccc2O)nc2ccccc12	16	-3	3	-3	-1	i	3	2
COc1ccc(OCC(O)CNC(=O)c2ccc(C)cc2)cc1 (centres undefined)	-12	-2	2	3	4	i	14	nt
CN1CCN(Cc2ccc(OCc3ccccc3)cc2)CC1	38	-7	31	3	1	i	-10	-31
CC1CC(C)(C)NC(=S)N1CC(=O)NCc1ccc(F)cc1 (centres undefined)	-4	5	32	3	5	i	-12	nt
CCN(CC)CCCn1c2c(c(SCC(=O)Nc3ccc(F)c(F)c3)nc1=O)CCC2	11	nt	nt	0	1	i	3	-2
CC(=O)Nc1ccc(N(C)C)cc1[N+](=O)[O-]	-7	13	4	-4	-4	i	8	-17
COC(=O)CNC(=O)CSc1nnc2cc(C)c3ccccc3n12	nt	-5	-3	1	0	i	4	-11
CN(C)CCOC(=O)c1ccc2[nH]c3c(c2c1)CSCC3	-33	33	28	1	5	i	-8	nt
CC(=O)N(CN1C(=O)CCC1=O)c1cccc(Cl)c1	-19	5	-1	-1	-2	i	-1	-10
Cc1ccc(CCCOC(=O)C[N+]2(C)CCCCC2)cc1	8	-2	51*	-6	-2	i	-1	nt
COc1ccccc1N1CCN(Cc2cccc(OC)c2OC)CC1	1	-1	10	2	0	nt	24	-2
O=c1sc(Nc2ccccc2)nc2ccccc12	2	-6	-2	7	4	i	10	nt
Cc1ccc(N2NC(=O)/C(=C/C=C/c3ccco3)C2=O)cc1C	-10	46	12	1	-1	i	3	nt
COc1cccc(OCC(=O)Nc2ccccc2-c2ccccc2)c1	30	-10	0	-10	-9	i	20	nt
COc1cc2[nH]c(=S)n(CCCN3CCOCC3)c(=O)c2cc1OC	1	-5	-2	4	2	i	nt	-7
CCOc1ncccc1C(=O)NNC(=O)c1ccccc1-n1cccc1	-9	-8	4	-1	0	i	-5	-12

Random excerpt: six compounds from above, in no set order.
SMILES	CSC inhib	eIF4H FP inh	PABP polyA inh	MT1-MMP act inh	MT1-MMP act inh RFP	Rce1 inhib	HIV Env fusion	UUG fidelity	others
COc1ccc(NC(=O)C2(C)Cc3c(-c4ccc(NC(C)=O)cc4)ccnc3O2)cc1 (centres undefined)	nt	nt	nt	2	1	nt	-72	-1
O=C(Nc1cccc(C(F)(F)F)c1)C(SCCO)c1ccccc1 (centres undefined)	-8	-11	-9	-1	0	i	-18	-4
COC(=O)CN1C(=O)C(O)(CC(=O)c2ccc(Cl)cc2)c2ccccc21 (centres undefined)	-5	-2	1	-1	7	nt	21	-4
O=c1sc(Nc2ccccc2)nc2ccccc12	2	-6	-2	7	4	i	10	nt
Cc1cccc(CC(=O)NCCS(=O)(=O)N2CCN(c3ccccc3)CC2)c1	nt	nt	nt	1	-2	nt	-37	-10
Cc1ccccc1Cc1c(C)nc2c(C(=O)N3CCN(Cc4ccc5c(c4)OCO5)CC3)cnn2c1C	nt	nt	nt	8	-2	i	60*	-11

Other records follow.
SMILES	CSC inhib	eIF4H FP inh	PABP polyA inh	MT1-MMP act inh	MT1-MMP act inh RFP	Rce1 inhib	HIV Env fusion	UUG fidelity	others
COc1ccc(CCNC(=O)c2cc(COc3c(C)cccc3C)on2)c(OC)c1	2	1	4	2	0	i	nt	-2
CC(=O)C[C@H]1c2ccccc2S(=O)(=O)N1C1CCCC1	2	nt	nt	-2	4	i	-31	10
O=C(Nc1ccc(Cl)cn1)c1ccc2[nH]c(=O)c(=O)[nH]c2c1	-5	12	17	0	2	i	-10	-12
O=C(c1cc(-c2ccc(Cl)cc2)n(-c2ccc(Cl)c(Cl)c2)n1)N1CCOCC1	8	-6	-14	-1	-2	i	nt	2
Cc1ccc(CNC(=O)CC(C)S(=O)(=O)c2cc3c(cc2C)NC(=O)CO3)cc1 (centres undefined)	nt	-20	-11	-2	1	i	7	4
COCCN(C(=O)c1ccc(N2C(=O)c3ccccc3C2=O)cc1)c1c(N)n(CC(C)C)c(=O)[nH]c1=O	nt	nt	nt	-1	2	nt	1	8
Cc1cc(C)c(NC(=O)COC(=O)C2CCC2)c(Cl)c1	-2	-4	3	0	5	i	-34	-9
O=C(O)CCS(=O)(=O)c1ccccc1Cl	-10	-4	-2	3	5	nt	7	-25
CCN1CCCC1CN(Cc1cc2ccc(C)cc2[nH]c1=O)C(=S)Nc1ccc(OC)cc1 (centres undefined)	-12	2	5	1	-1	i	-5	-1
Cc1cccc(CCNS(=O)(=O)c2ccc3c(c2)n(C)c(=O)c(=O)n3C)c1	-15	6	-6	3	-2	i	8	-20
O=P(c1ccccc1)(c1ccccc1)c1nc(-c2ccccc2)oc1NCc1ccccc1	-3	0	16	-35	-27	i	30	nt
COc1ccc(N2CCN(C(=O)COc3ccc(Cl)cc3Cl)CC2)cc1	-10	4	-8	12	-7	i	nt	0
COc1ccc(CNC(=O)c2ccc(SC)cc2OC)cc1	-2	-5	-4	0	0	i	nt	nt
Cn1c(SCC(=O)Nc2cccc(C(=O)O)c2)nnc1-c1cc2cc(Br)ccc2o1	-7	-6	15	1	7	i	6	4
Cn1c(=O)c(C(=O)CCl)c(N)n(Cc2ccccc2)c1=O	20	-7	-6	1	-8	i	0	-6

In the list so far, these have a CF3 group:
SMILES	CSC inhib	eIF4H FP inh	PABP polyA inh	MT1-MMP act inh	MT1-MMP act inh RFP	Rce1 inhib	HIV Env fusion	UUG fidelity	others
COc1ccc(-c2cc(NC(C)=O)c3ncc(-c4cccc(C(F)(F)F)c4)n3c2)c(OC)c1	nt	nt	nt	4	0	nt	-18	-9
O=C(Nc1cccc(C(F)(F)F)c1)C(SCCO)c1ccccc1 (centres undefined)	-8	-11	-9	-1	0	i	-18	-4

(continued)
SMILES	CSC inhib	eIF4H FP inh	PABP polyA inh	MT1-MMP act inh	MT1-MMP act inh RFP	Rce1 inhib	HIV Env fusion	UUG fidelity	others
COc1cccc(N2CCN(C(=O)CCNS(=O)(=O)c3ccc(F)c(F)c3)CC2)c1	-11	nt	nt	-1	-2	nt	nt	7
CC(OC(=O)c1cc(=O)c2ccccc2o1)C(=O)c1ccccc1 (centres undefined)	-6	nt	nt	-2	0	nt	nt	-20
COc1ccc(C)cc1C(=O)CCC(=O)NCCc1ccc(S(N)(=O)=O)cc1	-22	-7	8	-1	2	i	-2	-19
COc1ccc(-n2c(C)cc(C(=O)COC(=O)Cn3cnc4ccccc43)c2C)cc1	18	3	-1	0	-6	i	nt	-3
N#Cc1nc(-c2ccccc2)oc1NCc1ccco1	2	-4	-6	1	-1	i	6	-15
COc1ccccc1NC(=O)COc1ccc(Br)cc1CNCCCN1CCOCC1	-7	-2	-11	5	1	i	-7	nt
